Assay outcomes as filed in PubChem BioAssay.
PV pol inh = inhibitors of poliovirus RNA polymerase binding and polymerization; hit rate 0.66% among 150,000; P03300; poliovirus polymerase elongation, fluorescence polarization; active compounds read low; % elongation, % (compound at 16.7 µg/mL); in the data active means % elongation below about 90%; further: some results filed as inactive read as strong as hits
Target sequence (P03300 1749-2209 limits assumed): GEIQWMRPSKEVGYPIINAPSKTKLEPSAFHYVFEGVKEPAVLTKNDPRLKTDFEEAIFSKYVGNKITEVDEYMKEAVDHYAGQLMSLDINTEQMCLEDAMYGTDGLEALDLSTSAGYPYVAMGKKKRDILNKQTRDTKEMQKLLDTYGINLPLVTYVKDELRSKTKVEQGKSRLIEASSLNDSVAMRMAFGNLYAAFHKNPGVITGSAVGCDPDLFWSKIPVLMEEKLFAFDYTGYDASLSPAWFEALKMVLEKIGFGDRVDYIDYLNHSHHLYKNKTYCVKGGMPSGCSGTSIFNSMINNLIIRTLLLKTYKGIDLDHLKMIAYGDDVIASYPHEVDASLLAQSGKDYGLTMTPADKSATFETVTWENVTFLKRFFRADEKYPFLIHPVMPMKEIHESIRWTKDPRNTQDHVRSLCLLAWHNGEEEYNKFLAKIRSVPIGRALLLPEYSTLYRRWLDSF
PV pol inh intensity = also measured in PV pol inh; calls as there; % elongation; measured here: total intensity read-out; formula for this scale not given here;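 total fluorescence in place of polarization; lower means less elongation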
* hit, by the source's call.

SMILES	PV pol inh	PV pol inh intensity
Cc1ccc(-c2nc3ccccn3c2Nc2ccc3c(c2)OCO3)cc1	109	111
COCCCNC(=O)c1ccc(NC(=O)c2nsc3ccccc23)cc1	112	107
Cc1ccc(S(=O)(=O)NCCc2nnc3ccc(SCc4cccc(F)c4)nn23)cc1	114	110
CCc1ccccc1NC(=O)c1cnc2sc(N3CCCC3)nn2c1=O	108	95
COCCCNC(=O)Cn1c(=O)n(-c2cccc(C)c2)c(=O)c2c3c(sc21)CN(C(C)=O)CC3	100	105
Cc1cccc(C)c1NC(=O)CCSc1nc(-c2ccc3c(c2)OCO3)cc(C(F)(F)F)n1	106	110
COc1ccc(S(=O)(=O)NCC(c2ccc(N(C)C)cc2)N2CCc3ccccc32)cc1F (stereo not given)	107	112
CCN(C(=O)Cn1cnc2onc(-c3ccc(F)cc3)c2c1=O)c1ccc(OC)cc1	112	114
CCCSc1ncc(Cl)c(C(=O)Nc2nc3ccc(OCC)cc3s2)n1	110	109
COc1ccc(NC(=O)C(c2ccccc2)N2Cc3ccccc3C2=O)cc1 (stereo not given)	102	100
COc1cc(NC(=O)C2CCCN(S(=O)(=O)c3cn(C)cn3)C2)cc(OC)c1 (stereo not given)	105	106
COc1ccc(S(=O)(=O)Nc2ccc3c(c2)CCCN3S(=O)(=O)c2ccc(C)cc2)cc1F	107	113
CCn1c2c(c(=O)n3ncc(C(=O)Nc4ccc(F)cc4Cl)c13)CN(Cc1ccc(OC)cc1)CC2	104	108
Cn1nc(-c2ccccc2F)c2cc(C(=O)Nc3cc(F)ccc3F)sc21	108	112
CCOC(=O)COc1ccc(CC)cc1C(=O)c1ccn2nc(-c3ccc(F)cc3)cc2n1	110	111
CCOc1ccc(-c2nc(Cn3c(=O)cc(C)c4c(C)nn(-c5ccccc5)c43)c(C)o2)cc1	104	109
O=C(Nc1ccc(Br)cc1C(=O)c1ccccc1)c1ccccc1	105	110
Cn1c(=O)c2nc(SCC(=O)Nc3ccc(Cl)c(Cl)c3)n(C)c2n(C)c1=O	110	111
CCCN(CCC)C(=O)c1cn(CC)c2ccc(S(=O)(=O)N3CCCCC3)cc2c1=O	107	105
Fc1ccc(Nc2ncnc3c2nc2n3CCCC2)cc1	111	109
COCCNC(=O)c1c(-c2ccccc2)c(-c2ccccc2)nn(C)c1=O	109	96
CCOc1ccc(S(=O)(=O)c2cn(Cc3ccc(OC)cc3)c3ccc(F)cc3c2=O)cc1	102	101
O=[N+]([O-])c1ccc(S(=O)(=O)NCc2nc3cccnc3n2Cc2ccccc2Cl)cc1	107	109
COc1ccccc1NC(=O)C1=C(C)Nc2nc3ccccc3n2C1c1cccc(Br)c1 (stereo not given)	108	113
O=C(NC1CC(=O)N(c2ccccc2)C1)c1ccc(Br)o1 (stereo not given)	108	113
The list goes on:
SMILES	PV pol inh	PV pol inh intensity
Cc1ccccc1CNC(=O)c1ccccc1NC(=O)c1nsc2ccccc12	101	102
Cc1ccc(NC(=O)CSc2ccc(-c3cccs3)nn2)cc1Cl	107	106
Cc1cccc(NC(=O)c2ccc(-c3nc(CSc4ccccc4)c(C)o3)cc2)c1C	103	108
COc1ccc2c(C)c(CCC(=O)NCc3ccc(OC)c(OC)c3)c(=O)oc2c1	116	118
Cc1ccc(-c2nc(S(=O)(=O)c3ccc(C)cc3)c(N3CCN(c4ccccc4)CC3)o2)cc1	109	109
Cc1ccc(Cn2c(CO)cnc2SCC(=O)Nc2ccc(C)c(Cl)c2)cc1	108	108
CCOC(=O)c1c(Nc2cccc(C(=O)OC)c2)nnc(-c2ccccc2)c1-c1ccccc1	106	106
COc1ccccc1CNC(=O)CSCc1nc(-c2ccc(OC)c(OC)c2)oc1C	106	107
Cc1ccc(S(=O)(=O)c2nnn(-c3ccc(F)c(Cl)c3)c2N)cc1	105	110
CCOC(=O)c1[nH]c2c(c1Cc1ccccc1)C(=O)CC(c1ccc(C(C)(C)C)cc1)C2 (stereo not given)	102	106
NC(=O)c1ccc(NC(=O)C2CCN(S(=O)(=O)Cc3ccccc3)CC2)cc1	110	105
COc1ccccc1Nc1ncc(C(=O)Nc2ccc(OC)c(OC)c2)c2ccccc12	103	108
CN1CC(=O)N(CC(=O)Nc2cccc(C#N)c2)c2ccccc2C1=O	106	111
CCc1ccccc1NC(=O)c1c(NC(=O)c2ccccc2)sc2c1CCCC2	104	109
COc1ccccc1NC(=O)c1cc(S(=O)(=O)N2CCc3ccccc32)ccc1F	107	117
O=C(Cn1ccc2cc(S(=O)(=O)N3CCCCCC3)ccc21)NCCc1ccccc1Cl	109	113
Cc1ccc(C(=O)c2oc3ccccc3c2NC(=O)c2cc(-c3ccccc3)on2)cc1	104	112
CCC(=O)N1CCc2cc(Br)cc(S(=O)(=O)CCC(=O)N(CC)Cc3ccccc3)c21	104	107
CCCCCn1c(=O)[nH]c2cc(C(=O)NCc3ccc(F)cc3)ccc2c1=O	106	112
CCOc1ccc(NC(=O)C(=O)NCCc2csc(-c3ccc(C(F)(F)F)cc3)n2)cc1	105	109
CC(C)(C)c1ccc(C(=O)Nc2ccc(C(=O)OCc3cc(=O)n4ccsc4n3)cc2)cc1	104	113
Cc1ccc(-n2c(/C=C/c3ccccc3)nc3ccccc3c2=O)cc1C	107	109
CCc1ccc(NC(=O)C2CCCN(c3nn4cc(-c5ccc(OC)cc5)nc4s3)C2)cc1 (stereo not given)	109	114
COc1ccccc1-c1c(C)nn2c(-c3ccccc3)cc(-c3ccccc3)nc12	106	106
CC(C)CCNc1nc2c(-c3ccccc3)nnn2c2ccccc12	105	102

An excerpt from above in order of heavy-atom count, ascending.
SMILES	PV pol inh	PV pol inh intensity
CC(C)CCNc1nc2c(-c3ccccc3)nnn2c2ccccc12	105	102
Cc1ccccc1CNC(=O)c1ccccc1NC(=O)c1nsc2ccccc12	101	102
CCOc1ccc(NC(=O)C(=O)NCCc2csc(-c3ccc(C(F)(F)F)cc3)n2)cc1	105	109

As a short view, part of the list above:
SMILES	PV pol inh	PV pol inh intensity
CCOc1ccc(NC(=O)C(=O)NCCc2csc(-c3ccc(C(F)(F)F)cc3)n2)cc1	105	109
CC(C)(C)c1ccc(C(=O)Nc2ccc(C(=O)OCc3cc(=O)n4ccsc4n3)cc2)cc1	104	113
Cc1ccc(-n2c(/C=C/c3ccccc3)nc3ccccc3c2=O)cc1C	107	109
CCc1ccc(NC(=O)C2CCCN(c3nn4cc(-c5ccc(OC)cc5)nc4s3)C2)cc1 (stereo not given)	109	114
COc1ccccc1-c1c(C)nn2c(-c3ccccc3)cc(-c3ccccc3)nc12	106	106
CC(C)CCNc1nc2c(-c3ccccc3)nnn2c2ccccc12	105	102

Remaining list, next part.
SMILES	PV pol inh	PV pol inh intensity
CCOc1ccc(NCc2cccn2-c2nnc(N3CCC(C(=O)NC(C)c4ccccc4)CC3)s2)cc1 (stereo not given)	108	112
Cc1cc([N+](=O)[O-])ccc1NC(c1nnc(-c2ccccc2)o1)c1ccccc1F (stereo not given)	111	110
Nc1c(C(=O)Nc2ccc(C(=O)O)cc2)sc2nc3c(cc12)CCCC3	112	110
Cc1cccc(N2CCN(C(=O)c3sc4nc5n(c(=O)c4c3C)CCC5)CC2C)c1 (stereo not given)	103	104
CCc1ccc(NC(=O)Cn2c(=O)n(CCCC(=O)NCc3ccc4c(c3)OCO4)c(=O)c3ccccc32)cc1	110	112
COc1ccc(NC(=O)Cn2c(=O)n(Cc3nc(C)no3)c(=O)c3cc4c(cc32)OCO4)cc1OC	108	113
Cc1ccn2c(Nc3ccccc3C)c(-c3ccccc3)nc2c1	103	104
Cc1cc(C)cc(-n2c(SCC(=O)Nc3ccc4c(c3)OCO4)nc3c([nH]c4ccccc43)c2=O)c1	108	109
O=C(Nc1cccc(C(F)(F)F)c1)c1cc2nc(-c3ccccc3)cc(C(F)(F)F)n2n1	104	111
Cc1cccc(N2CCN(C(=O)c3ccc4c(c3)c(C)c(C)n4C)CC2)c1C	109	110
CCCn1cc(S(=O)(=O)c2ccc(CC)cc2)c(=O)c2cc(F)c(N(CC)CC)cc21	114	112
CN(C)CCNC(=O)CN1C(=O)CCn2nc(-c3cn(C)c4ccccc34)cc21	103	106
COc1cccc(Cc2nc3ccccc3nc2SCC(=O)N2CCCCC2C)c1 (stereo not given)	109	112
Cc1c(C(=O)N2CCC(C)CC2)c(S(=O)(=O)NCc2ccccc2)c(C)n1C	103	105
CCN(CC)c1ccc2cc(-c3nc(-c4cccs4)no3)c(=O)oc2c1	104	306
COC(=O)c1cc(NC(=O)c2sc3ncn(Cc4cccc(F)c4)c(=O)c3c2C)cc(C(=O)OC)c1	105	105
CCc1ccccc1NC(=O)c1ccc2c(c1)N(Cc1cc(C)ccc1C)C(=O)c1ccccc1S2(=O)=O	107	105
CCOc1cc2[nH]c(=O)n(CCCCC(=O)N3CCN(c4cccc(Cl)c4)CC3)c(=O)c2cc1OCC	110	110
Cc1nc(N2CCOCC2)c2c(C(=O)N3CCN(c4ccccc4F)CC3)c(C)oc2n1	100	105
O=C(c1ccc(Br)cc1)N(Cc1cccs1)c1ccc(F)cc1	111	104
CCc1cc2c(cc3c(=O)n(CC(=O)N4CCN(c5cc(Cl)ccc5C)CC4)nc(CC)n32)s1	104	100
CC(NC(=O)c1ccc2nc(CCc3ccccc3)oc2c1)c1ccccc1 (stereo not given)	107	108
Cc1cccc(NC(=O)c2ccc(F)c(S(=O)(=O)N(C)C3CCCCC3)c2)c1	108	111
CCOc1ccc(CCNC(=O)CN2CCN(Cc3ccc(Cl)cc3)C2=O)cc1OCC	112	112
Cc1oc2ccc(O)c(CN3CCN(Cc4ccccc4)CC3)c2c1C(=O)Nc1cccc(Cl)c1C	104	99
More compounds follow:
SMILES	PV pol inh	PV pol inh intensity
COc1ccc(Nc2cc(C)c3cc(NC(=O)c4ccccc4Cl)ccc3n2)cc1	107	112
Cn1c(=O)n(Cc2ccccc2)c(=O)c2c1nc1n2CCN1c1ccccc1	103	105
Cc1nnc(N2CCN(C(=O)Nc3cccc(C(F)(F)F)c3)CC2)c2nn(-c3ccccc3)c(C)c12	123	141
O=C(NCC(c1ccco1)S(=O)(=O)c1cccs1)c1ccc(Cl)cc1 (stereo not given)	111	115
Cc1ccc(CCNC(=O)Cn2c(-c3cccs3)cc3cc(F)ccc32)cc1	109	113
Cc1cc(C)cc(NC(=O)Cn2c(=O)n(-c3ccc(C)c(C)c3)c(=O)c3oc4ccccc4c32)c1	106	107
CCN(CC)CCCNC(=O)c1cn(C)c2ccc(S(=O)(=O)N3CCOCC3)cc2c1=O	102	103
COc1ccc2[nH]cc(CCN=C(NC(=O)c3ccccc3F)Nc3nc(C)cc(C)n3)c2c1	107	102
Cc1c(C)n(Cc2ccccc2)c2ccc(C(=O)NCc3ccccc3F)cc12	107	116
Cc1ccc(CNC(=O)C2CCN(c3ncnc4c3nc3n4CCCCC3)CC2)cc1	109	116
O=C(Nc1ccc2oc(-c3cc(Br)ccc3Cl)nc2c1)c1ccc2ccccc2c1	101	109
O=C1CC(c2nc(-c3cccc(Cl)c3)no2)CN1c1ccc2c(c1)OCCO2 (stereo not given)	108	100
CCc1ccc(C(=O)c2cn(CC(=O)Nc3ccc4c(c3)OCO4)c3ccc(CC)cc3c2=O)cc1	103	103
COc1cccc(CNc2ncnc3c2nnn3C)c1	105	107
CCc1ccc(-n2nc(CO)c(C(=O)NCCCc3ccccc3)n2)cc1	106	96
Cc1ccccc1-n1c(SCC(=O)Nc2ccc(Cl)cc2F)nnc1-c1cc2occc2n1C	116	118
CCCc1cc(=O)[nH]c(Nc2cc(Cl)ccc2OC)n1	108	112
COc1ccc(C2CC(=O)c3cc(-c4nc(-c5cccc([N+](=O)[O-])c5)cs4)c(=O)n(-c4ccc(C)c(C)c4)c3C2)cc1 (stereo not given)	112	108
CC1=C(C(=O)Nc2ccc(C)cc2C)C(c2cccn2C)n2ncnc2N1 (stereo not given)	112	115
O=C(CSc1nc(-c2ccc(Cl)cc2)nc2c1Cc1ccccc1O2)N1CCCCC1	105	109
COc1cccc(C(=O)Nc2cc3cc(OC)ccc3oc2=O)c1	85*	91*
CCOC(=O)c1c(NC(=O)/C=C/c2ccc(C(C)C)cc2)sc2c1CCC2	102	109
CCOC(=O)c1scc(-c2ccc(C)cc2)c1S(=O)(=O)Nc1ccc(OC)c(Cl)c1	100	110
Cc1cc(S(=O)(=O)Nc2ccc(-c3ccc(N4CCCCCC4)nn3)cc2)c(C)cc1Cl	104	105
Cc1ccccc1C(=O)c1cccn1CC(=O)NCc1ccccc1	114	108

Compound profiles, as listed above. Order of values: PV pol inh, PV pol inh intensity
Entry for Cc1ccc(CNC(=O)C2CCN(c3ncnc4c3nc3n4CCCCC3)CC2)cc1 → 109, 116
Entry for COc1ccc2[nH]cc(CCN=C(NC(=O)c3ccccc3F)Nc3nc(C)cc(C)n3)c2c1 → 107, 102

Other structures follow.
SMILES	PV pol inh	PV pol inh intensity
CCc1ccc(C(=O)c2cn(CC(=O)Nc3cc(OC)ccc3OC)c3ccc(C)cc3c2=O)cc1	105	107
CCOC(=O)c1cc2c(=O)n3ccccc3nc2n(Cc2ccco2)c1=NC(=O)c1cc(C)cc(C)c1	104	114
COc1cccc(NC(=O)CCc2nc(-c3cccs3)no2)c1	109	110
COc1ccc(N2CCN(C(=O)Nc3cn(CC(C)C)c(=O)c4ccccc34)CC2)cc1	108	104
Cc1cc2oc(C(=O)Nc3nc(-c4ccccc4)ns3)c(C)c2cc1Cl	105	107
CCOC(=O)c1c(NC(=O)c2cc(-c3ccc(Cl)cc3)on2)sc2c1CCCC2	84*	85*
COc1ccccc1NC(=O)Cc1c(C(=O)O)[nH]c2ccc(Cl)cc12	110	119
COc1cccc(-c2nc(SCC(=O)N3CCc4ccccc43)c3c(=O)n(C)c(=O)n(C)c3n2)c1	106	104
Cc1ccc2c(CNCCc3ccco3)c(C(=O)O)n(Cc3ccc(F)cc3)c2c1	118	121
COc1ccc(CCNC(=O)c2ccc3c(c2)c(C)c(C)n3Cc2ccccc2)c(OC)c1OC	109	103
CCOC(=O)Cc1ccc(NC(=O)N2CC(C)Oc3ccc(Cl)cc32)cc1 (stereo not given)	110	113

Some of the compounds tested; count on the stated rates, not on these rows.
